Screening data from PubChem BioAssay.
VACV mCherry inh: qHTS for Stage-Specific Inhibitors of Vaccinia Orthopoxvirus: mCherry Reporter Primary qHTS. 0.63% of 310,000 active. AID 720579, 2013. Potency, µM (top dose mostly 36.5 µM), without a hit: top-dose activity change, negative = inhibition, usual class: inhibitors. Vaccinia virus mCherry reporter infection, fluorescence; about a quarter of the inactives have no number; active = well fitted inhibition curve with a large enough effect; inconclusive = small, poorly fitted or top-dose-only effect; inactive = no such curve, though single readings can be large or run the other way; tested in A549 cells; also: nearly all actives have a fitted effect of over 35% in size; inactives centre near -10
Vaccinia Venus: qHTS for Stage-Specific Inhibitors of Vaccinia Orthopoxvirus: Venus Reporter Primary qHTS; Vaccinia virus Venus reporter expression, fluorescence; Potency, µM (top dose mostly 36.5 µM), inactives show at the top dose activity change, negative = inhibition, actives largely listed as inhibitors; 0.46% of 330,000 active; AID 720580, 2013; active means well fitted inhibition curve with a large enough effect; inconclusive means small, poorly fitted or top-dose-only effect; inactive means no such curve, though single readings can be large or run the other way; tested in A549 cells; also: nearly all actives have a fitted effect of over 30% in size; inactives centre near -10
* = called active by the depositor; i = inactive; ? = inconclusive; . = not tested or not shown; & = joins results of further samples; [ ] = another dose, or the depositor's remark. % is scaled to controls: 0 for no effect and ±100 for the full control effect; potency is read from the fitted curve at half-maximal effect. This is a random part of the collection; about 0.88% have a hit in one of these screens.

no.	canonical_smiles	VACV mCherry inh	Vaccinia Venus
1	C=C1C(=O)[C@]23C[C@H]1CC[C@H]2[C@]1(C)[C@@H](OC(C)=O)CC[C@@](C)(C(=O)O)[C@H]1C[C@@H]3OC(C)=O	i	1%
2	COC(=O)c1ccc(CNC(=O)COC(=O)/C=C/c2cccc(OC)c2)cc1	i	-10%
3	CN(CC(=O)Nc1cccc(F)c1)C(=O)c1cccc(S(=O)(=O)N2CCN(Cc3ccccc3)CC2)c1	-12%	?
4	Cc1cc2nc3n(c2cc1C)CC1CC(C(=O)NCc2ccco2)N(C)C31 (centres undefined)	i	-5%
5	NC(=O)c1c(NC(=O)c2cccnc2)sc2c1CCCC2	i	-22%
6	Cc1cc(C)c(-n2nnnc2SCC(=O)c2cc3ccccc3o2)c(C)c1	-4%	7%
7	COc1ccc(CNC(=O)CN(CC2CCCO2)C(=O)CNS(=O)(=O)c2ccc(F)cc2)cc1 (centres undefined)	.	-6%
8	COc1cccc(NC(=O)COc2c(F)c(F)c(C(F)(F)F)c(F)c2F)c1	-14%	-10%
9	CCO/C(C)=C1/SC(=S)NC1=O	-9%	9%
10	COc1ccc(NC(=O)CN(C)C(=O)c2ccc(N3CCCCC3)c([N+](=O)[O-])c2)cc1	-12%	-22%
11	Cc1ccc(Nc2c([N+](=O)[O-])c(=O)n(C)c3ccccc23)cc1	-15%	-5%
12	COc1cccc(-c2cn3c(n2)sc2cc(C(=O)NCCc4ccc(OC)c(OC)c4)ccc23)c1	-20%	-12%
13	CCCC1CC(CCc2ccccc2)OS(=O)(=O)N1 (centres undefined)	i	-14%
14	Cc1cc(NC(=O)C(C)SCC(=O)N(Cc2ccccc2)c2ccccc2)no1 (centres undefined)	-17%	11%
15	COc1ccccc1NC(=O)C1=C(C)Nc2nc(CCCO)nn2C1c1cccnc1 (centres undefined)	.	7%
16	Cc1cc(C(=O)NNC(=O)c2ccc(S(=O)(=O)N(C)C)cc2)c(C)o1	-11%	-12%
17	O=C(COC(=O)c1ccc2ncsc2c1)Nc1cc([N+](=O)[O-])ccc1Cl	-7%	-25%
18	Cc1cccc(NC(=O)CCNC(=O)c2ccco2)c1C	i	-5%
19	CSCc1ccc(C(=O)NC(C)c2cnn(-c3ccccn3)c2C)o1 (centres undefined)	i	-13%
20	CC(C)c1nnc(NC(=O)C2CCN(C(=O)Nc3ccc(Cl)cc3)CC2)s1	11%	-11%
21	COc1ccc(-c2noc(N3CCCC(C(=O)Nc4ccccc4F)C3)n2)cc1 (centres undefined)	i	-16%
22	Cn1ccnc1Sc1ccc(C(N)=O)cc1[N+](=O)[O-]	-9%	2%
23	NC(=O)c1ccc(SCC(=O)OCC(=O)N2CCCCC2)c([N+](=O)[O-])c1	i	-16%
24	CCOC(=O)c1oc2c(c1C)-c1nn(Cc3ccc(Cl)cc3)cc1CC2	-13%	-18%
25	CN(C)c1ccc2c(=O)c3ccccc3oc2n1	i	-17%
26	CC(C)C(NS(=O)(=O)c1cccc2cccnc12)C(=O)Nc1ccc(OC(F)(F)F)cc1 (centres undefined)	2%	4%
27	COc1ccccc1C(=O)N/C(=C/c1ccc(Br)cc1)C(=O)NCC(=O)O	-11%	-11%
28	COc1ccc(Oc2c(Cl)cnn(-c3ccc(Cl)c(Cl)c3)c2=O)cc1	.	-29%
29	CCN(C)c1cc2c(c3c1ccn3C)C1CCC2C1 (centres undefined)	0%	4%
30	O=c1c2ccccc2ncn1CCOc1ccccc1[N+](=O)[O-]	i	-19%
31	Cn1c(/C(C#N)=C(\O)CN2CCN(Cc3ccccc3)CC2)nc2ccccc21	i	-17%
32	CCc1ccc(OCCOCC(O)CNC(C)CC)cc1 (centres undefined)	-21%	-15%
33	Cc1cccc(C)c1NC(=O)CSc1nc(COc2ccccc2)nc2ccccc12	-12%	-4%
34	CC(=O)C1=C(O)C(=O)N(CCNCCO)C1c1ccccc1 (centres undefined)	-9%	-4%
35	C#CCOC(=O)CCC(=O)NCCc1ccccc1	.	-13%
36	Clc1ccccc1CN1CCNCC1	-11%	-6%
37	CCc1cccc(NC(=O)C(Cc2ccccc2)n2cccc2)c1 (centres undefined)	-4%	-2%
38	Cc1ccc(-n2c(=O)c3c(cnn3C)n(CC(=O)Nc3cccc(C)c3)c2=O)cc1	-10%	0%
39	O=C1CC(NS(=O)(=O)c2cccs2)CN1c1cccc(F)c1 (centres undefined)	i	-7%
40	COc1cc2cc(C(=O)NC(C)c3cccc4ccccc34)c(N)nc2cc1OC (centres undefined)	-8%	-11%

Complete entries, looked up by structure. Screens in order: VACV mCherry inh | Vaccinia Venus
Cc1cccc(C)c1NC(=O)CSc1nc(COc2ccccc2)nc2ccccc12 in the list: -12% | -4%
CCc1cccc(NC(=O)C(Cc2ccccc2)n2cccc2)c1 (centres undefined) in the list: -4% | -2%
C#CCOC(=O)CCC(=O)NCCc1ccccc1 in the list: . | -13%
O=C1CC(NS(=O)(=O)c2cccs2)CN1c1cccc(F)c1 (centres undefined) in the list: i | -7%
COc1cc2cc(C(=O)NC(C)c3cccc4ccccc34)c(N)nc2cc1OC (centres undefined) in the list: -8% | -11%

(next part)
no.	canonical_smiles	VACV mCherry inh	Vaccinia Venus
41	Fc1ccc(-n2ncc3c(NCCCn4ccnc4)ncnc32)cc1	-13%	-9%
42	CC1CCN(C(=O)c2ccccc2NC(=O)Cc2ccccc2)CC1	-11%	-5%
43	Cc1ccc(S(=O)(=O)NC2CC(C)(C)NC(C)(C)C2)cc1	-1%	-18%
44	Cc1cc(N/N=C/c2ccncc2)c([N+](=O)[O-])cc1[N+](=O)[O-]	-15%	-4%
45	Fc1ccc(-c2csc(N3CCOCC3)n2)cc1	?	-1%
46	CCc1ccc(NC(=S)NCc2ccccc2)cc1	i	-4%
47	Cn1c(=O)c2c(SCC(=O)N3CCc4ccccc43)nc(-c3ccccc3Cl)nc2n(C)c1=O	6%	4%
48	CCOC(=O)c1c(NC(=O)c2ccc(C)cc2)sc2c1CCCCC2	-3%	5%
49	O=C(COc1ccc(Cl)cc1)Nc1ccc(Cl)cc1C(=O)c1ccccc1	-20%	-18%
50	Cc1c(NC(=S)NC(=O)c2ccc(Cl)cc2)c(=O)n(-c2ccccc2)n1C	-16%	-5%
51	COc1cccc(N2C(=O)CC(Sc3nc(C)cc(C)n3)C2=O)c1 (centres undefined)	-2%	-16%
52	O=C(Nc1cc(N2CCOCC2)ncn1)c1ccc(F)cc1	4%	-9%
53	O=C(O)c1ccc(N2C(=O)c3[nH]nc(-c4ccccc4)c3C2c2cccc(F)c2)cc1 (centres undefined)	-7%	-2%
54	COc1ccc(NC(=O)CCN2CCN(c3ccccc3F)CC2)c(OC)c1	0%	-13%
55	COCCN1CCN(C(=O)c2cnn(-c3nccc(-c4ccccc4F)n3)c2-c2ccco2)CC1	-2%	7%
56	CCOc1c(/C=C(\C#N)C(N)=O)c2ccccc2n1CC	-6%	-22%
57	CCCOc1ccc(/C=N/NC(=O)c2ccc3c(c2)OCO3)c(OCCC)c1	i	-17%
58	COc1ccc(NC(=O)Nc2nnc(N(CC(C)C)CC(C)C)s2)c(OC)c1	-19%	-17%
59	Cc1ccc(C(=O)Nc2nnc(S(=O)(=O)N(C)Cc3ccc(F)cc3)s2)cc1	-3%	-1%
60	CCOC(=O)c1ccc(NC(=O)c2ncn3c2C(=O)NC[C@H]3C)cc1	i	-18%
61	Cc1cc(C)c2nc(NC(=O)c3cc(C)on3)sc2c1	.	-17%
62	COc1cc(NS(=O)(=O)c2ccc(NC(=O)Cc3ccccc3)cc2)nc(OC)n1	-23%	-8%
63	CCOC(=O)/C=C1/SCC(=O)N1CC(=O)Nc1ccc2c(c1)CCC2	-5%	-1%
64	O=C(Nc1ccc(F)c(Cl)c1)C1Cc2c(-c3ccc4c(c3)OCO4)ccnc2O1 (centres undefined)	18%	-2%
65	CN1CCN(CCCC(=O)c2ccc(C3CCCC3)cc2)CC1	-21%	-21%
66	O=C(NC1CCCCC1)c1ccc2c(c1)sc1nc(-c3ccccc3)cn12	?	?
67	c1ccc2c(Nc3ccc(N4CCOCC4)cc3)nc(N3CCOCC3)nc2c1	?	?
68	Cc1ccc(C)c(C(=O)COC(=O)c2n[nH]c3ccccc23)c1	-24%	-15%
69	CCN1CCN(C(c2ccccn2)c2c(NC(=O)c3ccccc3)sc(C)c2C)CC1 (centres undefined)	?	-20%
70	CCOC(=O)CC1=CSC2=NS(=O)(=O)CCN12	.	3%
71	CCCCNc1cc(N2CCN(C3CCCCC3)CC2)c2noc3c2c1C(=O)c1ccccc1-3	-3%	150%[activator]
72	Cc1ccc2nc(SCC(=O)N3CCCC3)[nH]c2c1	i	-2%
73	COC(=O)NCC(c1ccco1)N1CCN(c2ccc(F)cc2)CC1 (centres undefined)	-9%	-3%
74	CCc1ccc(NC(=O)CSc2nc3nc(C)cc(C)n3n2)cc1	-10%&-8%	-21%&-3%
75	O=C(NC1CCC(c2ccccc2)CC1)c1cccnc1 (centres undefined)	-24%	?
76	Cc1cccc(NC(=O)CN2C(=O)N/C(=C/c3ccc(C)o3)C2=O)c1	i	12%
77	CCCCCCCCN1C(=O)[C@H](CC(=O)NCCCOCCCC)C[C@@]2(C(=O)OC)CCCCC=C12	-23%	-18%
78	Cc1ccc(S(=O)(=O)N2C[C@H]3C(=O)C[C@@H](c4ccccc4)N(S(=O)(=O)c4ccc(C)cc4)[C@H]3C[C@H]2c2cccs2)cc1	i	-5%
79	CCN(CC)CC(=O)Nc1ccc(C)cc1C(=O)c1ccccc1	i[7.34 µM]	-2%[7.34 µM]
80	CCOc1cc2[nH]c(=O)n(CCCCC(=O)N3CCN(c4ccc(OC)cc4)CC3)c(=O)c2cc1OCC	-9%	-20%
81	CCCCn1c(-c2ccccc2)nc2c(=O)n(C)c(=O)[nH]c21	.	-3%
82	CS(=O)(=O)Nc1nc2n(n1)C(c1ccccc1)CC(c1ccccc1)N2 (centres undefined)	i	-3%
83	Cc1nn(C(=O)c2c(-c3ccccc3)noc2C)c(C)c1N=Nc1cc(C(F)(F)F)cc(C(F)(F)F)c1	i	-15%
84	CC1=C(C(=O)Nc2ccccc2)C(c2cccs2)n2nc(SCc3ccccc3F)nc2N1 (centres undefined)	-11%	-16%
85	COc1cc(OC)cc(C(=O)OCC(=O)NCc2ccc3c(c2)OCO3)c1	?	5%
86	COc1cccc(NC(=O)CSC(N)=O)c1	i	-10%
87	CCOCCn1c(SCC(=O)OCc2ccccc2)nc2c1c(=O)[nH]c(=O)n2C	-22%	-2%
88	COc1ccc(N(CC(=O)NCCC2=CCCCC2)S(=O)(=O)c2ccccc2)c(OC)c1	i	-17%
89	O=C(Nc1c(F)cc(F)cc1Br)c1ccco1	-10%	-5%
90	O=C(/C=N\O)NCCCNCc1ccccc1	-4%	-14%
91	CCNC(=O)COC(=O)Cc1ccc(Cl)cc1Cl	-1%	-5%
92	COc1ccc(/C=C2\CC/C(=C\c3ccc(OC)c(OC)c3)C2=O)cc1OC	i	-9%
93	Cc1ccc(-c2nnn3c2nc(NCC(C)c2ccccc2)c2ccccc23)cc1 (centres undefined)	-26%	-16%
94	CC12CCC(C(=O)NCc3ccc4c(c3)OCO4)(C(=O)C1=O)C2(C)C (centres undefined)	-11%	-11%
95	O=CN/C=C/c1cc(O)ccc1O	-12%	0%
96	CCOc1ccccc1N1CCN(CC(=O)NC(C)c2ccccc2)CC1 (centres undefined)	i	2%

(more compounds)
no.	canonical_smiles	VACV mCherry inh	Vaccinia Venus
97	Cc1ccc(C2=NN(CCC(=O)N3CCC4(CC3)OCCO4)C(=O)CC2)cc1	-1%	-18%
98	Cc1cccc(-n2c(C)nc3cc(C(=O)NCCC4=CCCCC4)ccc32)c1	-14%	-7%
99	CSc1ccc(/C=C/C(=O)N2CCCN(C)CC2)cc1	-8%	-1%
100	CN=c1sc2ccccc2n1CC(O)COCc1ccco1 (centres undefined)	?	-11%
101	CC(=O)c1ccc(NC(=O)COC(=O)c2ccccc2N=Nc2ccc(N(C)C)cc2)cc1	?	-14%
102	O=[N+]([O-])c1ccc(N2CCCC2)c([N+](=O)[O-])c1	-15%	-14%
103	N#CCC(=O)NCC1(c2ccccc2)CCCC1	-17%	18%
104	CCOc1ccccc1CNC(=O)CN(c1ccc(C)cc1)S(=O)(=O)N(C)C	-4%	-5%
105	Cc1ccc(S(=O)(=O)/C(C#N)=C/c2ccccc2OCc2ccccc2)cc1	-13%	-19%
106	COC(=O)[C@@H]1C[C@@H](c2ccccc2)[C@H](C)C1(C)C	-28%	-25%
107	O=C(C1=C(c2ccccc2)C(=O)c2ccccc2C1=O)c1ccccc1	?	-13%
108	O=C(CN1CCN(c2ccccc2)CC1)N1CCc2ccccc21	-6%	-9%
109	O=c1oc2ccc(C#CC3(O)CCCCC3)cc2cc1-n1cc(C2(O)CCCCC2)nn1	i	-16%
110	O=C(COC(=O)c1ccccc1NC(=O)c1ccco1)NCc1ccc2c(c1)OCO2	.	-3%
111	N#Cc1ncc(C(F)(F)F)cc1Sc1ccccc1N	.	-5%
